PKD1 kinase inh = PKD1 (human) kinase inhibition | PKD1 kinase fluorescence polarization assay | hit rate 0.056% among 200,000 | Q15139 | inhibition, %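 (about 10 µM by stock and volumes)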;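 active = inhibition of 50% or more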;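 also: controls were vehicle for no effect and a reference inhibitor for full effect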
RGS16-Gao HTS = modulates binding between human RGS16 and Galphao; bead-based flow cytometry RGS16-Galphao binding, fluorescence; actives lie on both sides; binding response (% of control), % at 10 µM; hit rate 0.38% among 220,000; AID 1441;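 active = below 25% or above 175%, edge rows of some plates excepted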;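 also: Galphao activated by GDP with aluminum fluoride before binding; 100% = wells without compound and 0% = beads without RGS; some results beyond the cut were filed as inactive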
Target sequence (O15492 whole entry, looked up): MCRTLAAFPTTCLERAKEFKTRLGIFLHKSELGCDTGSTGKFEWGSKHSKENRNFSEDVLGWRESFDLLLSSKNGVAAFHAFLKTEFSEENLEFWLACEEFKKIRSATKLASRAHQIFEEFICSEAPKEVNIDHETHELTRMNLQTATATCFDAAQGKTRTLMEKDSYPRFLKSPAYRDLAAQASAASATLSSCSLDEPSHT
Target sequence (P09471 whole entry, looked up): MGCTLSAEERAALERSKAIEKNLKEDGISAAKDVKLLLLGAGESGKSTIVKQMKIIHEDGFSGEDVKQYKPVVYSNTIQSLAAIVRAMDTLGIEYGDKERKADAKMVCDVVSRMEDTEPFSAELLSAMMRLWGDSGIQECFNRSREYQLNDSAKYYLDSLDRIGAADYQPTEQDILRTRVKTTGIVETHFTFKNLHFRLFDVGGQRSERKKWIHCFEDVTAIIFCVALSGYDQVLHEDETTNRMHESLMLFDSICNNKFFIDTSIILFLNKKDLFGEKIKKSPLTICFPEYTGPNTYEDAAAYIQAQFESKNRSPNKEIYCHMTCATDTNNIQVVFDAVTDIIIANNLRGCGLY
GALR2 agonist = GALR2 (human) receptor agonism; O43603; GALR2-expressing cells, agonist activation read-out; activation, %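 (tested at 5 µM)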; hit rate 0.48% among 140,000; AID 803;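 active = above mean plus 3 SD of all compounds, about 5% in these data, not always enough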;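 also: 0% = vehicle buffer wells and 100% = reference agonist at full effect; tested in CHO reporter cells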
Target sequence (O43603 whole entry, looked up): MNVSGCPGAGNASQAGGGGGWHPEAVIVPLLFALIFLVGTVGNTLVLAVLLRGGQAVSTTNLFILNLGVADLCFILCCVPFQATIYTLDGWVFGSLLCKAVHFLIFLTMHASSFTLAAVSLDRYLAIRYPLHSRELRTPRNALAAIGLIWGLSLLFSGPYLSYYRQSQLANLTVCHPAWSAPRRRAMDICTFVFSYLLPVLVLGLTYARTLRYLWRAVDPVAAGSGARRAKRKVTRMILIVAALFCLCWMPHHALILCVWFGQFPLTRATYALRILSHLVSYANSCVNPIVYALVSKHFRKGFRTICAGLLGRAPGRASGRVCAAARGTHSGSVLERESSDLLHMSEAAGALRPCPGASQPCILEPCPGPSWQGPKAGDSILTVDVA
HSV replic up = HSV replication enhancement; HSV replication augmentation in cells, fold increase; maximum fold increase; hit rate 0.005% among 220,000; AID 1956;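 active = peak rise of 1.5-fold or more in the series; tested in PC3 cells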;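 also: first round at 10 µM; read as green reporter fluorescence; hits show the peak of a series up to 25 µM; 1 = signal of infected wells without compound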
INS promoter inh = TRM-6 insulin promoter activity inhibition | TRM-6 cells (human fetal islet line), insulin promoter-eGFP reporter, imaging; reporter expression induced with tamoxifen | inhibition, % at 2 µM | hit rate 0.9% among 130,000 | AID 1273;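 active = inhibition above the mean plus 3 SD, with well images judged a real hit on visual review, cut at about 60% in these data, passing the limit was not always enough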
INS promoter inh cell count = recorded beside INS promoter inh, whose call it bears; normalized cell count, %; measured here: cell count, toxicity; reference of the scale not given here;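 cells exposed to compound for 48 h; stained nuclei by imaging scaled within each plate; lower means fewer cells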
HSV replic up primary fold = further read-out of HSV replic up, marked with its call; fold increase; compound at 10 µM; measured here: primary screen fold increase 10 uM; tested in PC3 cells;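 GFP signal in the first replicate; 1 = infected wells without compound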
Starred values were filed as active, the others as inactive; i = inactive; . = no result given. Hits appear at their usual frequency; about 1.3% have a hit in one of these screens.

SMILES	PKD1 kinase inh	RGS16-Gao HTS	GALR2 agonist	HSV replic up	HSV replic up primary fold	INS promoter inh	INS promoter inh cell count
Nc1cc(=O)[nH]n1C1CCN(c2ccccc2)CC1	23	108	-2.0	i	0.92	11	139
CCOc1ccccc1C(C(=O)NCCOC)N(CCOC)C(=O)Cn1nnc2ccccc21 (centres undefined)	1	101	.	i	1.2	.	.
C/C(=N/N=C(/N)SCc1ccccc1)C(C)(C)C	-10	101	.	i	0.86	-12	79
CC1CCc2c(sc(NC(=O)CSc3nnc(-c4ccccc4)o3)c2C#N)C1 (centres undefined)	-12	49	-0.9	i	0.92	-67	62
CCCCn1cc(C(C)(C)C)c(C#N)c1NC(C)=O	-9	84	-1.9	i	1.2	.	.
O=C(c1cc2cc(Br)ccc2o1)N1CCOCC1	-1	101	.	i	0.98	.	.
O=C1CC(c2nc3ccccc3[nH]2)CN1c1ccccc1 (centres undefined)	-1	43	-0.7	i	1.1	0	120
Cc1ccc(C(=O)CN(C(=O)c2ccc(Cl)cc2)N2C(=O)CCC2=O)cc1	0	101	.	i	0.89	.	.
COC(=O)c1[nH]c(C)c(/C(O)=C2\C(=O)C(=O)N(CCN(C)C)C2c2ccccc2OC)c1C (centres undefined)	-3	104	-1.1	i	0.8	.	.
COC(=O)C(C)N1C(=O)S/C(=C/c2cc(C)n(C(C)C)c2C)C1=O (centres undefined)	3	77	-0.6	i	0.64	23	134
COc1ccc(C(=O)OCC(=O)N2CCCCC2)cc1[N+](=O)[O-]	2	95	.	i	1	.	.
COC(=O)C1CCN(C(c2cccs2)c2sc3nc(C)nn3c2O)CC1 (centres undefined)	-6	.	0.7	i	0.93	-20	89
O=C(Oc1ccccc1)Oc1ccc2c(c1)oc(=O)c1ccccc12	0	101	-2.6	i	0.81	.	.
CCn1ncc(NC(=S)NCCc2ccc(OC)c(OC)c2)c1C(N)=O	0	105	.	i	1.1	-42	118
N/C(=N\OC(=O)c1cccc(Br)c1)c1ccccc1	8	90	-4.7	i	1	-10	85
Cn1cc(Br)c(C(=O)NN2C(=O)C3C4C=CC(C5CC45)C3C2=O)n1 (centres undefined)	1	107	.	i	0.95	.	.
Cc1ccc(N(CC(=O)NCCSc2nc3ccccc3s2)S(=O)(=O)c2ccccc2)c(C)c1	-8	99	-1.5	i	0.89	24	123
CCc1ccc(NC(=O)c2cnn(-c3ccccc3)c2C2CCNCC2)cc1	1	98	.	i	0.88	.	.
CCOC(=O)c1cc2sc(C)cc2n1CC(=O)NCCc1ccccc1	-2	108	-0.4	i	0.71	26	116
Cc1ccc(C)c(OCC(=O)O/N=C(\N)c2ccccn2)c1	-5	94	-2.6	i	0.87	6	178
Cc1ccccc1CSc1nccn1-c1ccccc1	-3	104	-1.8	i	0.93	3	83
CCS(=O)(=O)N1CCCC(C(=O)NCCCOC(C)C)C1 (centres undefined)	4	104	0.0	i	0.98	69	55
COc1cc(CN2CCC(C(=O)N3CCN(c4ccccc4F)CC3)CC2)cc(OC)c1OC	-2	102	-0.6	i	0.92	4	161
O=C(NC1CC2CCCC(C1)N2C(=O)Nc1ccccc1)c1ccncc1 (centres undefined)	-12	99	-2.2	i	1	7	107
COc1cc(-c2nn3c(COc4ccccc4)nnc3s2)cc(OC)c1OC	-5	90	-0.6	i	0.88	.	.
Cc1cccc(NC(=O)CCNS(=O)(=O)c2cccc3nonc23)c1	7	102	.	i	0.92	.	.
CC(C(=O)NCc1ccco1)n1cc(C(=O)c2ccco2)c2ccccc21 (centres undefined)	4	99	-0.9	i	0.98	-11	184
COc1ccc(NC(=S)NC(C)c2ccncc2)cc1OC (centres undefined)	1	100	.	i	1.1	.	.
CC(C(=O)NCc1ccc(F)cc1)c1ccc([N+](=O)[O-])cc1 (centres undefined)	3	97	.	i	1	.	.
C/C(N)=C(/C#N)C(=O)CSc1nc2ccccc2c(=O)n1-c1ccccc1C	-11	102	-1.3	i	0.66	13	206

4 of the compounds above, with two lines to a compound:
The line under a structure holds: PKD1 kinase inh, RGS16-Gao HTS, GALR2 agonist, HSV replic up, HSV replic up primary fold, INS promoter inh, INS promoter inh cell count
Cc1cccc(NC(=O)CCNS(=O)(=O)c2cccc3nonc23)c1
  7, 102, ., i, 0.92, ., .
CC(C(=O)NCc1ccco1)n1cc(C(=O)c2ccco2)c2ccccc21 (centres undefined)
  4, 99, -0.9, i, 0.98, -11, 184
COc1ccc(NC(=S)NC(C)c2ccncc2)cc1OC (centres undefined)
  1, 100, ., i, 1.1, ., .
CC(C(=O)NCc1ccc(F)cc1)c1ccc([N+](=O)[O-])cc1 (centres undefined)
  3, 97, ., i, 1, ., .

(cont.)
SMILES	PKD1 kinase inh	RGS16-Gao HTS	GALR2 agonist	HSV replic up	HSV replic up primary fold	INS promoter inh	INS promoter inh cell count
COc1cccc2c(C)nc(Nc3nc(CSc4nnc(C)s4)cc(=O)[nH]3)nc12	-4	117	-1.5	i	1.2	-3	104
CC(C)(C)n1nnnc1C(c1cccnc1)N1CCN(c2ccccc2F)CC1 (centres undefined)	1	95	-2.9	i	0.93	38	130
COC(=O)c1cc(OC)c(OC)cc1NC(=O)CN1C(=O)c2ccccc2C1=O	-7	101	-1.8	i	0.88	33	102
Cc1cc(C)nc(NS(=O)(=O)c2ccc(NC(=O)NC3CCCCC3)cc2)n1	-1	104	-1.6	i	0.91	43	138
COc1ccc(-c2cc(CNC(=O)CCl)on2)cc1	6	96	-3.9	i	0.86	-4	107
CNC(=O)CSc1n[nH]c(-c2cc(Cl)ccc2OC)n1	6	100	.	i	1.1	24	84
Cc1ccc(-c2noc(CSc3nnc(-c4ccncc4)n3-c3ccc(C)cc3)n2)cc1	-4	105	-0.9	i	0.87	-17	111
COc1cc(Br)cc(/C=N/NC(=O)Cc2ccc(C(F)(F)F)cc2[N+](=O)[O-])c1O	7	97	0.5	i	1.1	.	.
O=c1c2ccccc2c(-c2ccc(Br)cc2)nn1Cc1ccccc1	4	105	-1.2	i	0.85	-32	38
CCOCCCNC(=O)CSCc1nc(-c2ccc(SC)cc2)oc1C	5	99	.	i	1.2	-50	55
O=C(CN1CCN(c2ncccn2)CC1)NCCC1=CCCCC1	-8	115	-0.1	i	0.75	18	123
COc1ccc(CC(=O)Nc2ccc(-c3nnc(-c4ccccc4)o3)cc2)cc1	-6	94	-1.8	.	.	-6	115
Cc1noc(C)c1COC(=O)/C=C/c1ccc(Cl)cc1	6	110	.	i	0.94	7	97
Cc1nc2ccccn2c1-c1csc(NCc2ccco2)n1	-18	99	-1.0	i	0.87	-69	99
CCC(C)NC(=O)C1CCN(S(=O)(=O)c2cccs2)CC1 (centres undefined)	-6	17	-0.8	i	0.96	62	132
Cc1ccc2c(c1)CCCN2C(=O)c1cccs1	2	87	-1.9	i	1.1	25	117
COc1cc(OC)c(OC)cc1CNCCNC(=O)c1nonc1N	2	93	0.7	i	0.86	0	88
CCOC(=O)c1c(C)[nH]c(C(=O)Nc2ccc(C)c(Cl)c2)c1C	-6	103	-1.3	i	0.93	-75	43
CCCNC(=O)Nc1ccc(NC(C)=O)cc1	1	99	.	i	0.92	.	.
COc1ccc(NC(=O)CSc2nc3sc(C)c(C)c3c(=O)n2Cc2ccco2)cc1	-4	99	-1.6	i	0.83	.	.
COc1ccc(CCC(=O)Nc2ccc(N3CCOCC3)cc2)cc1	2	99	-1.6	i	0.77	0	75
Cc1ccc(C(=O)C(C)[n+]2cccc(C(N)=O)c2)cc1 (centres undefined)	-8	100	.	i	0.84	-11	144
COc1cc(/C=N/N2C(=O)CSC2=S)ccc1O	1	95	-2.4	i	1	-25	95
Cc1ccc2cc(CN(CCCN3CCOCC3)C(=O)NC3CCCCC3)c(=O)[nH]c2c1C	-7	100	-1.1	i	1	.	.
O=C(/C=N/O)NCc1cccnc1	-4	101	2.0	i	0.97	-38	135
c1ccc(-c2ccc3c(c2)NCCN3)cc1	.	104	.	i	0.94	.	.
CCCCCCn1c(CN2CCC(C)CC2)nc2c1c(=O)n(C)c(=O)n2C	4	125	-1.4	i	0.86	29	68
CCOC(=O)N1CCN(C(=O)c2ccc3c(c2)N(Cc2ccc(C)cc2)CCS3)CC1	3	102	-2.5	i	0.88	-38	100
COc1ccc(-c2cnc(N)nc2-c2ccc(OC)cc2O)cc1	-3	100	1.4	i	0.94	0	103
CC(=O)c1c(C)nc(-c2ccc(OCC(=O)Nc3cccc(C)c3C)cc2)n1O	-3	101	.	i	0.88	57	150

Rewritten with two lines to a compound: entries from further up.
Results follow in this order: PKD1 kinase inh	RGS16-Gao HTS	GALR2 agonist	HSV replic up	HSV replic up primary fold	INS promoter inh	INS promoter inh cell count
- O=C1CC(c2nc3ccccc3[nH]2)CN1c1ccccc1 (centres undefined)
→ -1	43	-0.7	i	1.1	0	120
- Nc1cc(=O)[nH]n1C1CCN(c2ccccc2)CC1
→ 23	108	-2.0	i	0.92	11	139

(continued)
SMILES	PKD1 kinase inh	RGS16-Gao HTS	GALR2 agonist	HSV replic up	HSV replic up primary fold	INS promoter inh	INS promoter inh cell count
Cc1ccc(-c2cc(C(F)F)n3ncc(C(=O)N4CCCc5ccccc54)c3n2)cc1	-3	98	-2.7	i	0.98	-231	127
CCCC(C)NC(=O)COC(=O)c1cccc(NS(C)(=O)=O)c1 (centres undefined)	.	103	.	i	1	.	.
CC(O)CNC(=O)C1CCN(Cc2ccc(OCc3ccccc3)cc2)CC1 (centres undefined)	8	107	-0.6	i	0.64	.	.
CC(C)C(NC(=O)C(NC(=O)C1OC2OC(C)(C)OC2C2OC(C)(C)OC12)C(C)C)C(=O)O (centres undefined)	-2	106	.	i	1	.	.
O=C(C(c1ccccc1)c1ccccc1)N1CCN(CCN2C(=O)c3cccc4cccc(c34)C2=O)CC1	6	103	0.3	i	0.92	-43	114
O=[N+]([O-])c1ccc(Cl)c(S(=O)(=O)n2ccnc2)c1	.	105	.	i	0.9	.	.
C/C(=N\NC(=O)c1ccc(Cn2cc(Br)cn2)o1)c1cccc(NC(=O)C(C)(C)C)c1	-2	67	0.2	i	0.89	-33	61
Nc1nc2c(ncn2COC(CO)CO)c(=O)[nH]1	5	229	-0.8	i	0.6	-138	22
CC(=O)NS(=O)(=O)c1ccc(N)cc1	8	103	-1.4	i	1.1	29	110
O=C(CSCc1ccc(Br)cc1)N1CCCC1	0	96	.	i	0.93	.	.
CCCNC(=O)COC(=O)CCC(=O)c1ccc(F)cc1	-2	89	-1.9	i	0.98	-16	105
COC(=O)c1ccc(NC(=O)CSc2nnc(Cc3cccn3C)n2-c2ccc(F)cc2)cc1	-6	96	-0.3	i	1.3	.	.
O=C(c1nnc(Cc2ccc(Cl)cc2)o1)N1CCOCC1	-10	100	-0.4	.	.	15	119
N#CCc1nn2c3c(cnc2c1C#N)C(=O)CCC3	0	100	.	i	1	.	.
Cn1c(Br)nc2c1c(=O)n(CC(O)COc1ccccc1)c(=O)n2C (centres undefined)	20	106	-1.4	i	0.93	.	.
CCOC(=O)C(NC(=O)c1ccccc1)(Nc1cccc(C)n1)C(F)(F)F (centres undefined)	-3	103	.	i	0.8	.	.
CC1CN(C(=O)COC(=O)c2cccs2)CC(C)O1 (centres undefined)	-4	104	-0.4	.	.	.	.
CN1CCCCCC1=NC1=C(C#N)CCCC1	-8	106	-1.0	i	0.97	.	.
CC(C)C(=O)NC(NC(=S)NC1CCS(=O)(=O)C1)C(Cl)(Cl)Cl (centres undefined)	-6	106	-0.5	i	0.99	-429	40
CC(=O)C1=C(NC(=O)c2ccc(F)cc2)CC2C1C2(C)C (centres undefined)	-4	95	1.9	i	0.9	0	73
O=C(C1CC1)N1CCc2cc(Br)cc(S(=O)(=O)N3CCN(c4ccccn4)CC3)c21	-7	110	-0.7	i	1.2	.	.
COC(=O)N/N=C/c1cc(OC)c(O)c([N+](=O)[O-])c1	-10	95	0.1	i	1	-46	75
COC(=O)c1cc(OC)c(OC)cc1NC(=O)CCc1ccc(C)o1	-5	96	-3.5	i	0.93	-5	104
Cc1cccc(-n2c(SCCC(=O)O)nnc2-c2cccs2)c1C	5	99	-0.8	i	0.87	.	.
CCCc1nnc(SCC(=O)N2CCCC(C)C2)n1CC1CCCO1 (centres undefined)	-4	124	-0.5	i	1.1	36	50
C=CCn1c(SCc2csc(C)n2)nc2scc(-c3ccc(C)o3)c2c1=O	8	113	-0.1	i	0.77	-4	111
Cc1cc2ccccc2n2c(SCC(=O)N3CCOCC3)nnc12	3	104	.	i	0.93	47	93
CN1C(=O)c2ccc(N(C)C)cc2C1=O	1	88	1.0	i	1.1	0	73
